Mtb H37Rv = M. tuberculosis H37Rv growth inhibitors, H37Rv strain (AID 1626). M. tuberculosis H37Rv growth inhibition; higher % means a stronger effect. inhibition, % at 10 µM; hits with a dose series show IC50 in µM. 220,000 tested, 0.95% active;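 active = confirmed in a dose series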;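 note: bacteria incubated seven days before Alamar blue readout; 0% = bacteria only wells and 100% = bacteria with antibiotic wells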
RecA intein inh = Mtb RecA intein splicing inhibition | inhibition, %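 (about 9 µM by stock and volumes)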 | cell-free RecA intein splicing, fluorescence | 290,000 tested, 0.75% active; in the data active = inhibition above about 30%;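 note: 0% = vehicle wells and 100% = reference inhibitor control wells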
Target sequence (P9WHJ3 whole entry, looked up): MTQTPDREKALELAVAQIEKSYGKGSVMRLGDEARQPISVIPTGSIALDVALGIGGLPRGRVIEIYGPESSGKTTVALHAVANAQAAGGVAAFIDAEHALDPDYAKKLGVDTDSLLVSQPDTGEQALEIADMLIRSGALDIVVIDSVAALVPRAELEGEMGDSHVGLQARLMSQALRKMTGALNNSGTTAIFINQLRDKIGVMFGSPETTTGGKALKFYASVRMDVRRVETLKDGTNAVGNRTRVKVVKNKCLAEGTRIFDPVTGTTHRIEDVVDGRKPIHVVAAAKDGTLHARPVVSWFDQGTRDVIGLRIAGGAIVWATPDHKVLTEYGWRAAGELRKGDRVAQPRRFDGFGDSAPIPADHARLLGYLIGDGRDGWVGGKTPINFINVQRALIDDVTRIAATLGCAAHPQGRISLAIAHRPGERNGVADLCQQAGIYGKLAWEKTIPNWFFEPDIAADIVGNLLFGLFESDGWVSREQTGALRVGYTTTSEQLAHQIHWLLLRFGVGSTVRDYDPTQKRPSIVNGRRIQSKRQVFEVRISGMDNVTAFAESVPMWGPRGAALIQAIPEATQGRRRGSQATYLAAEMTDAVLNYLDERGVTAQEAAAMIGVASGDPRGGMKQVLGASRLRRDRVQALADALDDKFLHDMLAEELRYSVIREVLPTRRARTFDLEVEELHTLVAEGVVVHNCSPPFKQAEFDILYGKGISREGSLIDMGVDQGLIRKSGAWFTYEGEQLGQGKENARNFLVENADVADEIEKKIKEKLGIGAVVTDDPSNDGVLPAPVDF
Arbovirus inh = antivirals against arbovirus infection | arbovirus infection cell-based antiviral screen | inhibition, % at 10 µM | 200,000 tested, 0.37% active;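 active = inhibition from about 30%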;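 note: bluetongue infection of BSR cells; cell survival read as ATP light after 72 h; 0% = infected wells without compound and 100% = uninfected wells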
Mtb bLac sens = beta-lactam sensitization of Mtb H37Rv | inhibition, % at 25 µM | M. tuberculosis H37Rv growth with meropenem, percent inhibition; hits of this screen are not shown here | 330,000 tested, 0.27% active | AID 434955;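 active = about 74% or more and at least 40 points above the plate without the antibiotic, then above 30% in a dose series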;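 note: growth measured after seven days incubation then overnight dye step; 0% = bacteria only wells and 100% = bacteria with antibiotic; twin plates without the antibiotic show which effects depend on it; some results filed as inactive read as strong as hits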
YopH PTP inh = YopH (Yersinia) phosphatase inhibition. fluorescence Ex485/Em525. inhibition, %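 (about 10 µM by stock and volumes)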. AID 898. 140,000 tested, 0.16% active;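 active = inhibition of 50% or more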;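 note: controls were vehicle for no effect and minimum signal wells for full effect; inactives centre near -20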
Arbovirus inh repeat = also measured in Arbovirus inh; calls as there; inhibition, %; measured here: 10K subset replicate screen; many hits read low in the repeat;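 first of two repeat runs on a subset; 0% = infected and 100% = uninfected wells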
Numbers without * were called inactive; x = not tested or not shown. These rows are one share of the data, so the mix of outcomes need not match the whole.

SMILES | Mtb H37Rv | RecA intein inh | Arbovirus inh | Mtb bLac sens | YopH PTP inh | others
CCOC(=O)c1sc2ncnc(N3CCN(C(=O)OCC)CC3)c2c1C | -0.4% | 1.9 | 12.0 | 39.4 | -26.3
COc1ccc2c(c1)c1nc3ccccc3nc1n2Cc1ccc(OC(C)C)c(OC)c1 | 9.6% | -49.5 | -4.8 | 2.5 | -21.5
COc1ccc(OC)c(NC(=O)CNC(c2ccccc2)c2ccccc2)c1 | x | 5.5 | x | 2.5 | x
COc1ccc(NC(=O)CN(C)C(=O)CCC2CCCC2)cc1 | x | -0.3 | x | -0.7 | x
C/C(=N\Nc1cccc2cccnc12)c1ccc(N)cc1 | 5.7% | 12.7 | 0.1 | -1.7 | x
CCOC(=O)c1sc(NC(=O)c2ccc(S(=O)(=O)N(C)C)cc2)nc1C | 2.0% | 0.8 | -0.4 | 8.4 | -7.7
O=C(COC(=O)Cc1ccccc1)Nc1ccc(SC(F)F)cc1 | 36.4µM* | 7.4 | -0.3 | 94.3 | -24.1
Cc1nn(Cc2ccccc2Cl)c(C)c1NC(=O)NC12CC3CC(CC(C3)C1)C2 | 13.2% | 1.3 | -38.5 | -5.3 | 0.1
Cc1cc(C(=O)Nc2ccc(Cl)cc2)c(C)n1Cc1cccs1 | -8.2% | 5.8 | x | 1.1 | x
CCC1CCC2(CC1)NC(=O)N(CC(=O)c1c(C)[nH]c3ccccc13)C2=O (configuration not stated) | 9.1% | 2.7 | 3.6 | 2.1 | -15.4
CCOc1ccccc1/C=N/NC(=O)CSc1n[nH]c(=O)[nH]c1=O | -11.3% | 3.7 | 0.2 | -3.5 | x
Fc1ccc(COc2ccccc2CNCc2ccncc2)cc1 | 5.7% | -2.0 | -3.5 | 6.1 | -31.9
COc1ccc([N+](=O)[O-])cc1NC(=O)C(C)OC(=O)c1ccccn1 (configuration not stated) | -1.5% | x | 4.6 | 3.1 | x
COc1ccc2c(c1)-c1c(ssc1=S)C(C)(C)N2S(=O)(=O)c1ccc(C)cc1 | 13.0% | -1.5 | -12.4 | -2.4 | 5.2
Cc1ccc(NC(=O)C(C)Sc2nnc(-c3cccnc3)o2)cc1 (configuration not stated) | -2.3% | -1.0 | -0.6 | -12.6 | -40.5
O=C(COC(=O)C1=COCCO1)NCc1ccc(F)cc1 | x | -1.2 | x | 41.7 | x
Cc1cc(S(=O)(=O)ON2C(=O)c3ccccc3C2=O)ccc1F | x | 0.9 | x | -4.6 | x
CCCCc1nc2cc(C(=O)N3CCCC(COC)C3)ccc2o1 (configuration not stated) | x | 0.5 | x | -11.0 | x
CCOC(=O)C(C(=O)NCc1ccc(C)cc1)c1ncc(C(F)(F)F)cc1Cl (configuration not stated) | 4.9% | 0.6 | 4.8 | -1.2 | -38.5
CCCCOc1ccc(NC(=O)CSc2cccc3cccnc23)cc1 | 59.0% | x | -14.7 | 33.2 | -16.1
Cc1ccc(NC(=O)CN2C(=O)S/C(=C\c3cc(C)n(-c4cccc(C(=O)O)c4)c3C)C2=O)cc1 | -4.1% | 3.6 | -11.2 | 42.7 | x
Oc1ccc(NCc2ccc(OCc3ccccc3)cc2)cc1 | x | -12.5 | x | 11.1 | x
CN1CCN(c2nc(Nc3cccc(C(F)(F)F)c3)nc(N3CCOCC3)n2)CC1 | 4.9% | -0.2 | -27.7 | 0.9 | -19.9
Cc1c(OC(C)C(=O)NCc2ccncc2)ccc2c3c(c(=O)oc12)CCCC3 (configuration not stated) | x | 0.2 | x | 98.7 | x
CCN(CCNC(=O)C1=C(C)C(=O)OC12CCC(C)CC2)c1ccccc1 (configuration not stated) | 1.8% | -9.0 | x | -6.9 | x
Next part.
SMILES | Mtb H37Rv | RecA intein inh | Arbovirus inh | Mtb bLac sens | YopH PTP inh | others
CCn1c(SCC(=O)c2ccc(OC)cc2)nnc1C(C)NC(=O)c1ccc(OC)cc1 (configuration not stated) | -1.4% | 1.3 | 3.8 | -18.8 | 15.9
CC[N+](C)(CC)CC(=O)OCC1C(C)C=C(C)CC1C (configuration not stated) | -2.5% | -0.6 | x | -6.2 | x
CCn1nnnc1Oc1ccc(Cl)cc1 | -11.2% | 2.0 | 5.5 | -5.3 | 4.7
COc1ccc(C2C(C(=O)Nc3ccccn3)=C(C)Nc3ncnn32)c(OC)c1 (configuration not stated) | -1.5% | 0.9 | 0.6 | -1.1 | -18.5 | Arbovirus inh repeat=4.8
O=C(N/N=C/c1cccnc1)c1ccccc1 | x | -3.4 | x | -5.1 | x
CN(Cc1ccccc1)C(=O)Cc1ccccc1 | x | 4.1 | x | -7.4 | x
COc1ccc(CNC(=O)C(=O)NCC2OCCN2S(=O)(=O)c2ccc3c(c2)OCCO3)cc1 (configuration not stated) | 1.2% | 0.7 | -3.8 | 4.7 | -28.9
O=S(=O)(c1ccccc1)c1cccc(S(=O)(=O)N2CCCCC2)c1 | -8.8% | 2.7 | -14.3 | -5.3 | -29.8
CC(=O)NN1CCc2cc3ccc(C)cc3nc21 | x | -1.3 | x | 2.9 | x
CCOCCCNC(=O)N[C@H](C(=O)OC)C(C)CC (some centres not stated) | -9.2% | -1.1 | x | -2.2 | x
O=C(CN1C(=O)NC2(CCc3ccccc3C2)C1=O)NCc1ccco1 (configuration not stated) | 1.0% | -3.9 | 7.6 | -0.1 | x
COc1ccc(C(=O)NCC(=O)OCc2ccccc2F)cc1 | 2.3% | -1.4 | 2.3 | -3.0 | x
COC(=O)c1ccccc1NC(=O)c1cc[n+]([O-])cc1 | x | -3.7 | x | -2.0 | x
CC(C)C(=O)N1CCN(c2c(Cl)cccc2[N+](=O)[O-])CC1 | -0.9% | 2.7 | -0.3 | -10.5 | 2.5
CC(c1ccco1)N(C(=O)c1cccc(S(=O)(=O)N(C)C)c1)c1ccccn1 (configuration not stated) | x | -2.8 | x | -2.0 | x
CN1CCC(N(CCc2ccccc2)C(=O)CCC(=O)O)CC1 | x | -3.8 | x | 0.7 | x
COc1ccc(C(=O)Nc2ccc(-c3nnn(CC(=O)NCc4ccco4)n3)cc2)cc1 | 1.2% | x | x | 1.2 | x
COc1ccc(-c2cc(N3C(=O)Nc4ccccc4N3O)n[nH]2)cc1OC | -2.2% | -1.8 | -6.2 | -6.3 | -32.8
O=C(Nc1ccccc1)c1cccnc1NCCc1ccccc1 | 16.8% | 10.9 | 9.2 | 9.6 | -2.9
CC(C)OCCCNC(=O)CCN1C(=O)COc2ccccc21 | -4.7% | 1.2 | 1.6 | 1.8 | -46.0
Cc1ccc(NC(=O)CSc2nnc(-c3cccnc3)n2CCN2CCCCC2)cc1 | -3.7% | -2.2 | -0.7 | 4.3 | -16.8
COc1ccc(NC(=O)C2C(c3ccccc3)C2(Cl)Cl)c(OC)c1 (configuration not stated) | x | -0.8 | x | -16.5 | x
O=C(COC(=O)Cc1ccccc1[N+](=O)[O-])NCc1ccc(Cl)cc1 | 4.3% | 1.7 | -1.7 | 12.9 | -27.2
S=C(Nc1ccccc1)Nc1ccc(Br)cc1 | 4.9% | 7.0 | x | -3.9 | x
CCOC(=O)NNC1CC(=O)N(c2ccc(OC)cc2)C1=O (configuration not stated) | -0.9% | 2.8 | 3.0 | -4.3 | -64.3
(further entries)
SMILES | Mtb H37Rv | RecA intein inh | Arbovirus inh | Mtb bLac sens | YopH PTP inh | others
O=C(Nc1nccs1)c1ccc(Br)c(S(=O)(=O)N2CCCC2)c1 | x | -1.9 | x | -4.8 | x
CCOC(=O)c1c(NC(=O)COC(=O)c2c(C)noc2C)sc2c1CCC2 | -7.4% | 0.6 | -9.6 | 3.6 | -24.6
CC/C=C\[C@H](O)[C@H](O)C1=C(C)C(=O)[C@]2(O1)C(=O)N[C@@](OC)(C(=O)c1ccccc1)C2O (some centres not stated) | -6.0% | -5.7 | 4.8 | -2.8 | x
Cc1cccc(CN2CCN(Cc3ccc(Cl)cc3)CC2)c1 | 3.9% | -0.3 | 7.0 | -3.6 | -15.9
COC(=O)C1=C(c2cc3ccccc3s2)C[C@@H]2CC[C@H]1N2C(=O)N1CCOCC1 | -0.6% | 0.2 | x | -3.2 | x
O=C(COc1ccc([N+](=O)[O-])cc1)Nc1cccc(C(=O)Nc2ccccc2C(=O)O)c1 | x | 1.5 | x | 1.7 | x
CCNC(=O)CC1C(=O)N(c2ccc(C)cc2)C(=O)N1CCC(C)C (configuration not stated) | x | 0.2 | x | -3.3 | x
COc1ccc(C(=O)/C(=C\c2ccco2)N2C=CC=CC2=C(C#N)C#N)cc1 | -2.9% | 14.1 | -30.5 | 7.4 | -30.5
COc1cc(/C=N/NC(=O)c2cccc(S(=O)(=O)N3CCCC3)c2)ccc1O | x | 0.5 | x | -2.6 | x
O=C(Nc1ccc2c(c1)OCCO2)C1CCN(S(=O)(=O)c2ccccc2)CC1 | 1.0% | 0.2 | 13.9 | -8.6 | x
Cc1ccc(/C=N/NC(=O)CNC(=O)c2cccs2)cc1 | x | 1.7 | x | -22.1 | x
N#Cc1ccccc1Cn1cc(/C=C/[N+](=O)[O-])c2ccccc21 | 61.7% | 6.7 | -33.4 | 82.8 | 19.1
O=C(O)C1CC=CCC1C(=O)N1CC=C(c2ccccc2)CC1 (configuration not stated) | 3.4% | -1.5 | -0.4 | -5.8 | x
COc1ccc(NC(=O)CCCCCN2C(=O)c3cccc([N+](=O)[O-])c3C2=O)c(OC)c1 | x | -1.8 | x | 3.3 | x
COCCn1c(Sc2ccc(C)cc2)nc2c1c(=O)[nH]c(=O)n2C | -4.2% | -0.5 | 13.4 | -8.2 | -1.3
COc1cc(C(=O)OCC(=O)N(C)Cc2ccccc2)cc(OC)c1OC | -1.7% | -1.8 | -1.0 | 2.7 | -3.2
O=C(NCCc1ccccc1)c1cnc(Cl)c(Cl)c1 | x | 3.4 | x | -4.3 | x
Cc1ccccc1NC(=S)NC(C)C(c1cccs1)N1CCOCC1 (configuration not stated) | -1.0% | 1.4 | 3.8 | 1.9 | -32.5
O=C(NCCCn1ccnc1)c1noc2c1CCc1ccccc1-2 | 8.9% | 1.6 | -4.0 | -9.7 | 19.0
CCOC1=NN(c2ncc(C(F)(F)F)cc2Cl)C(=O)C1 | 0.8% | 1.7 | 2.6 | 0.2 | x
Cc1ccc(C(=O)COC(=O)C2CCC2)cc1 | x | 4.8 | x | 9.5 | x
Cc1cc(C)nc(SCC(=O)OCN2C(=O)c3ccccc3C2=O)n1 | 6.8% | -14.8 | 6.2 | -5.2 | -33.9 | Arbovirus inh repeat=4.2
O=C(Cc1cc(=O)[nH]c(=O)[nH]1)NCC1CCCO1 (configuration not stated) | -3.5% | 0.0 | -1.5 | -6.0 | -16.7 | Arbovirus inh repeat=1.4

Part of the list above in order of heavy-atom count, low to high.
SMILES | Mtb H37Rv | RecA intein inh | Arbovirus inh | Mtb bLac sens | YopH PTP inh | others
Cc1ccc(C(=O)COC(=O)C2CCC2)cc1 | x | 4.8 | x | 9.5 | x
O=C(Cc1cc(=O)[nH]c(=O)[nH]1)NCC1CCCO1 (configuration not stated) | -3.5% | 0.0 | -1.5 | -6.0 | -16.7 | Arbovirus inh repeat=1.4
O=C(NCCc1ccccc1)c1cnc(Cl)c(Cl)c1 | x | 3.4 | x | -4.3 | x
CCOC1=NN(c2ncc(C(F)(F)F)cc2Cl)C(=O)C1 | 0.8% | 1.7 | 2.6 | 0.2 | x
Cc1ccc(/C=N/NC(=O)CNC(=O)c2cccs2)cc1 | x | 1.7 | x | -22.1 | x
Cc1cccc(CN2CCN(Cc3ccc(Cl)cc3)CC2)c1 | 3.9% | -0.3 | 7.0 | -3.6 | -15.9
O=C(O)C1CC=CCC1C(=O)N1CC=C(c2ccccc2)CC1 (configuration not stated) | 3.4% | -1.5 | -0.4 | -5.8 | x
O=C(NCCCn1ccnc1)c1noc2c1CCc1ccccc1-2 | 8.9% | 1.6 | -4.0 | -9.7 | 19.0
Cc1ccccc1NC(=S)NC(C)C(c1cccs1)N1CCOCC1 (configuration not stated) | -1.0% | 1.4 | 3.8 | 1.9 | -32.5
COc1cc(C(=O)OCC(=O)N(C)Cc2ccccc2)cc(OC)c1OC | -1.7% | -1.8 | -1.0 | 2.7 | -3.2
COc1cc(/C=N/NC(=O)c2cccc(S(=O)(=O)N3CCCC3)c2)ccc1O | x | 0.5 | x | -2.6 | x
COC(=O)C1=C(c2cc3ccccc3s2)C[C@@H]2CC[C@H]1N2C(=O)N1CCOCC1 | -0.6% | 0.2 | x | -3.2 | x
CC/C=C\[C@H](O)[C@H](O)C1=C(C)C(=O)[C@]2(O1)C(=O)N[C@@](OC)(C(=O)c1ccccc1)C2O (some centres not stated) | -6.0% | -5.7 | 4.8 | -2.8 | x
COc1ccc(NC(=O)CCCCCN2C(=O)c3cccc([N+](=O)[O-])c3C2=O)c(OC)c1 | x | -1.8 | x | 3.3 | x
